StopGo reporter = FMDV 2A StopGo reporter, luciferase signal; human cells with a luciferase reporter of 2A StopGo recoding; control for the full effect not named in the record; Potency, µM (titrated, usually from 57.9 µM), for the others: at the highest dose signal change, negative = less light; hit rate 1.2% among 410,000; AID 1159524; active = well fitted falling curve with a large enough effect; inconclusive = small, poorly fitted or top-dose-only effect; inactive = no such curve, though single readings can be large or run the other way; tested in HEK293T cells; note: % is set by controls: 0 for no effect and ±100 for the full control effect; nearly all actives have a fitted effect of over 45% in size; luciferase light after 4 h
Cruzain noTriton = cruzain (T. cruzi) inhibition without detergent | P25779 | purified cruzain, Z-FR-AMC fluorescence, no detergent | Potency, µM, without a hit: max response, negative = inhibition, usual class: inhibitors | hit rate 2.3% among 200,000; active = well fitted curve in the direction sought with a large enough effect; inconclusive = small, poorly fitted or top-dose-only effect, or another doubt; inactive = no such curve, though single readings can be large; an effect the other way counts as inactive or inconclusive;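 note: plate controls were enzyme without inhibitor for no effect and buffer without enzyme for full effect; nearly all actives have a fitted effect of over 40% in size; top concentration of the series not given in the record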
Target sequence (P25779 123-467 limits assumed): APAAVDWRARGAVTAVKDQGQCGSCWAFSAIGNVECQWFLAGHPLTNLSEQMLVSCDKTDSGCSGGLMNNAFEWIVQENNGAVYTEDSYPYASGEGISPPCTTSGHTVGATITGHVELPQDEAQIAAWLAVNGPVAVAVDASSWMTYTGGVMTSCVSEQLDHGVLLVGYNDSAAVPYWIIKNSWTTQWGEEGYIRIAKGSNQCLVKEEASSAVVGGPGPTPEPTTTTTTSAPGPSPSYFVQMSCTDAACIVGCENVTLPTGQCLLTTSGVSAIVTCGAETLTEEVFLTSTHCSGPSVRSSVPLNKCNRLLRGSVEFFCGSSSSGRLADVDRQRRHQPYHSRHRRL
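Purified cruzain at 1.5 nM, pre-incubated 15 min with compound at room temperature in 100 mM sodium acetate pH 5.5, 5 mM DTT, 0.00005% Triton X-100. Reaction started with 2 uM Z-FR-AMC; AMC fluorescence increase over 60 s gives rate.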
Lassa entry inh = blocks Lassa virus binding to or entry into cells | Lassa virus pseudotype entry inhibition, cell reporter; control for the full effect not named in the record | Potency, µM (series often up to 37.9 µM), inactives show at the highest dose activity change, negative = inhibition, usual class: inhibitors | hit rate 1.2% among 300,000 | AID 540256; active means well fitted inhibition curve with a large enough effect; inconclusive means small, poorly fitted or top-dose-only effect, or effect the other way; inactive means flat fitted curve, though single readings scatter; tested in HEK293 cells; note: % is set by controls: 0 for no effect and ±100 for the full control effect; nearly all actives have a fitted effect of over 50% in size; luciferase read-out
SARS PLpro yeast = SARS-CoV PLP inhibition in yeast. S. cerevisiae expressing SARS-CoV PLpro, growth rescue; control for the full effect not named in the record. Potency, µM (series often up to 32.9 µM), for the others: top-dose activity, positive = growth rescue. hit rate 0.19% among 330,000. AID 485353; note: 0% is about no effect; nearly all actives have a fitted effect of over 55% in size; growth read by luminescence after 48 h
NS1 inh = inhibitors of influenza NS1 protein function | hit rate 0.4% among 270,000 | S. cerevisiae slowed by influenza A NS1, growth recovery by OD600 | Potency, µM (highest dose often 46.1 µM), for the others: at the top dose activity, positive = more growth; note: actives are rising curves; nearly all actives have a fitted effect of over 50% in size
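Recovery from NS1-induced slow growth read by OD600 in budding yeast switched to galactose assay medium (pH 6.0, -URA) at 1:100 dilution. Compound 23 nl per well; the matching strain lacking NS1 serves as control.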
RE007 growth inh = less growth of the S. pombe RE007 Vpr strain | hit rate 0.21% among 360,000 | Potency, µM (doses to about 92.2 µM), inactives show top-dose activity change, negative = less growth | S. pombe RE007 Vpr strain, BacTiter-Glo ATP luminescence, 24 h; control for the full effect not named in the record; active = well fitted falling curve with a large enough effect; inconclusive = small, poorly fitted or top-dose-only effect; inactive = no such curve, though single readings can be large or run the other way;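 note: % is set by controls: 0 for no effect and ±100 for the full control effect; nearly all actives have a fitted effect of over 50% in size; the assay follows cell death caused by Vpr and the record does not say whether a fall means rescue or toxicity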
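Fission yeast strain RE007, carrying one chromosomally integrated HIV-1 vpr copy, was seeded at OD 0.01 in PMG+AL medium with 23 nL pinned compound. After 24 h at 30 °C and 99% humidity, viability was read by BacTiter-Glo luminescence.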
Cruzain inh Det = cruzain (T. cruzi) inhibition with detergent. P25779. purified cruzain, Z-FR-AMC fluorescence, 0.01% Triton. Potency, µM, for the others: max response, negative = inhibition, most hits filed as inhibitors. hit rate 0.43% among 200,000. AID 1478; active = well fitted curve in the direction sought with a large enough effect; inconclusive = small, poorly fitted or top-dose-only effect, or another doubt; inactive = no such curve, though single readings can be large; an effect the other way counts as inactive or inconclusive;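 note: plate controls were neutral wells for no effect and buffer without enzyme for full effect; nearly all actives have a fitted effect of over 40% in size; top concentration of the series not given in the record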
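15 min RT preincubation of 1.5 nM cruzain with compound, then 2 uM Z-FR-AMC added; kinetic AMC fluorescence, 60 s delta. Triton X-100 0.01%, pH 5.5.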
MARV entry inh = blocks Marburg virus binding to or entry into cells. Marburg virus pseudotyped entry inhibition, cell reporter; control for the full effect not named in the record; about a third of the inactives were read at about 46 µM. AID 540276. hit rate 1.8% among 300,000. Potency, µM (top dose mostly 37.8 µM), for inactives: at the highest dose activity change, negative = inhibition, actives largely listed as inhibitors; active = well fitted inhibition curve with a large enough effect; inconclusive = small, poorly fitted or top-dose-only effect, or effect the other way; inactive = flat fitted curve, though single readings scatter; tested in HEK293 cells; about a fifth of its hits are not listed in these tables; note: % is set by controls: 0 for no effect and ±100 for the full control effect; luciferase read-out
* marks the source's active call; other numbers are inactive results; ? = inconclusive; / = not tested or not shown; & = joins results of further samples; ! = not confirmed by another sample; [ ] = dose if it differs, or a comment. Unless noted, calls come from the whole dose curve; as a rule, active means well fitted rising curve with a large enough effect; inconclusive means small, poorly fitted or top-dose-only effect; inactive means no such curve, though single readings can be large or run the other way. Potency is the fitted concentration of half-maximal effect. Random draw from the library. Share with any hit: about 4.7%.

smiles,StopGo reporter,Cruzain noTriton,Lassa entry inh,SARS PLpro yeast,NS1 inh,RE007 growth inh,Cruzain inh Det,MARV entry inh
Cc1onc(-c2ccccc2)c1-c1csc(N/N=C/c2ccccc2)n1,-18.6%,/,?,0.3%,9.0%,18.8%,/,?
Cn1cc(-c2cc(C(=O)O)on2)cn1,-1.1%,/,/,0.6%,-5.6%,-2.4%,/,/
COc1ccc(OC)c(NC(=O)CC2Oc3ccccc3NC2=O)c1 (stereo unspecified),47.6%[activator],/,/,-2.6%,5.7%,9.2%,/,/
CCOC(=O)N1CCC(N2CC34C=CC(O3)C(C(=O)Nc3ccc(C)cc3)C4C2=O)CC1 (stereo unspecified),-16.5%,10.9%,/,1.0%,7.3%,10.7%,8.0%,0.0%
O=C(c1cccc([N+](=O)[O-])c1)N1CCN(S(=O)(=O)N2CCCCC2)CC1,-16.9%,/,28.6%[46.1 µM],5.1%,12.8%,-0.7%,/,4.5%[46.1 µM]
CCc1ccc(OCc2nnc(-c3ccccc3Br)o2)cc1,27.3%,/,4.1%,-0.8%,/,-10.1%,/,?
CCOc1ccc(CN(C(=O)c2nc(SC)ncc2Cl)C2CCS(=O)(=O)C2)cc1 (stereo unspecified),-23.6%,-6.3%,-8.6%[46.1 µM],/,/,/,-5.4%,-13.7%[46.1 µM]
Cc1ccccc1-n1nc(C)c2cc(C(=O)N3CCN(S(=O)(=O)c4ccc(F)cc4)CC3)sc21,?,-3.2%,?,1.1%,-46.9%,-5.1%,4.8%,20.6µM*!

(next part)
smiles,StopGo reporter,Cruzain noTriton,Lassa entry inh,SARS PLpro yeast,NS1 inh,RE007 growth inh,Cruzain inh Det,MARV entry inh
Cc1cc(C)c2nc(-c3cccnc3)cc(C(=O)NC(C)c3cnn(C)c3C)c2c1 (stereo unspecified),-15.3%,/,-14.2%,0.0%,-0.9%,7.6%,/,-2.5%[46.1 µM]
O=C(Nc1ccccc1)c1ccc[nH]1,64.1%[activator],2.9%,4.3%,-11.9%,-1.1%,-7.3%,-2.9%,3.2%&3.2%
NNC(=S)Nc1cc(S(=O)(=O)N2CCOCC2)ccc1N1CCOCC1,-19.2%,/,2.7%,0.7%,/,2.7%,/,?
CC(NC(=O)c1cc2ccccc2o1)c1cccs1 (stereo unspecified),/,-1.6%,?,6.6%,-50.5%,-28.5%,5.9%,?
N#CCOc1ccc(C2=NO[C@@H]3[C@@H]4C[C@@H]([C@H]5C(=O)N(c6ccc7c(c6)OCO7)C(=O)[C@@H]45)[C@H]23)cc1,0.0%,?,-0.8%,-3.7%,?,5.9%,-1.0%,?
FC(F)(F)c1ccnc(N2CCN(Cc3cnc(-c4ccccc4)[nH]3)CC2)c1,-10.5%,/,14.5%,-0.9%,-2.9%,7.8%,/,?
Cc1[nH]nc(Nc2ccc(O)cc2)c1[N+](=O)[O-],0.0%,/,14.9%,-0.8%,3.2%,-2.8%,/,?
COCc1cc(C)nc2sc(C(=O)NN)c(-n3cccc3)c12,7.2%,/,8.0%,-1.0%,/,-0.9%,/,?

2 of these compounds in a different format.
Fields: StopGo reporter, Cruzain noTriton, Lassa entry inh, SARS PLpro yeast, NS1 inh, RE007 growth inh, Cruzain inh Det, MARV entry inh
O=C(Nc1ccccc1)c1ccc[nH]1
 : 64.1%[activator], 2.9%, 4.3%, -11.9%, -1.1%, -7.3%, -2.9%, 3.2%&3.2%
NNC(=S)Nc1cc(S(=O)(=O)N2CCOCC2)ccc1N1CCOCC1
 : -19.2%, /, 2.7%, 0.7%, /, 2.7%, /, ?

Continued:
smiles,StopGo reporter,Cruzain noTriton,Lassa entry inh,SARS PLpro yeast,NS1 inh,RE007 growth inh,Cruzain inh Det,MARV entry inh
COc1cccc(NC(=O)C2CCN(S(=O)(=O)c3c(C)noc3/C=C/c3cccs3)CC2)c1,?,15.8µM*,-16.8%[46.1 µM],/,/,/,-2.6%,?
COc1ccc(OC)c(CNS(=O)(=O)c2cc(-c3cc(C)no3)ccc2OC)c1,4.2%,/,/,-0.7%,-20.6%,-1.4%,/,/
CN(C)CCCNC(=O)c1ccc(-c2nc(-c3ccc(Cl)cc3)cs2)cc1,37.1%[activator],-20.6%,?,-8.9%,-129.9%,-20.9%,-21.9%,?
Oc1ccc(Br)cc1/C=N/Nc1ncc(-c2ccccc2)cn1,-13.8%,/,-25.2%,-1.9%,3.8%,-10.7%,/,-33.5%
CCn1cc(C(=O)NC2CC3CCC2C3)c(=O)c2ccc(C)nc21 (stereo unspecified),/,-4.5%,/,-3.4%,-6.4%,/,4.8%,-0.5%
Cc1c(CN2CCC(CO)(Cc3ccccc3)CC2)c2ccccc2n1C,-23.1%,/,/,-0.5%,-1.3%,2.9%,/,/
CC(=O)N1CCN(c2ccc(S(=O)(=O)N3CCOCC3)cc2[N+](=O)[O-])CC1,-3.2%,/,-1.6%[46.1 µM],-2.0%,/,-10.0%,/,-1.9%[46.1 µM]
COc1ccccc1CNC(=O)Cn1nc(C)n2cccc2c1=O,-1.9%,?,?,/,/,/,-6.2%,?

The list continues.
smiles,StopGo reporter,Cruzain noTriton,Lassa entry inh,SARS PLpro yeast,NS1 inh,RE007 growth inh,Cruzain inh Det,MARV entry inh
COc1ccc(-n2ncc(Cl)c(Cl)c2=O)cc1,8.91µM*,/,?,-0.9%,/,-9.6%,/,?
O=C(O)c1ccccc1C(=O)c1ccc(-c2ccccc2)cc1,45.4%[activator],/,/,1.5%,-3.6%,4.1%,/,/
Cc1cc2c(=O)n(CC(=O)N3CCN(c4ccccc4)CC3)cnc2s1,-3.5%,5.0%,0.6%,-7.6%,3.9%,-22.3%,5.3%,?
O=C(O)CCCCCNc1nc(=S)[nH]c2ccccc12,4.3%,8.4%,12.4%,0.9%,?,27.3%,-5.9%,16.3%
N#C/C(=C/c1ccc2c(c1)OCO2)C(=O)NCCc1c[nH]c2ccccc12,-7.4%,7.8%,-19.7%,1.5%,-6.9%,-7.8%,-10.7%,-19.4%
C/C(=N\NC(=O)c1cc(C)nc2ccccc12)c1ccc([N+](=O)[O-])cc1,-14.7%,/,-8.0%[46.1 µM],-3.0%,10.8%,2.5%,/,12.8%[46.1 µM]
COc1cc(C(=O)Nc2nc3c(s2)Cc2c(Br)ccc(OC)c2-3)cc(OC)c1OC,-4.5%,12.7%,-12.4%[46.1 µM],/,/,/,-2.9%,-15.7%[46.1 µM]
COc1cccc(-c2coc3cc4oc(=O)c(CC(=O)O)c(C)c4cc23)c1,26.3%,/,/,-3.6%,12.5%,3.4%,/,/

(list continues)
smiles,StopGo reporter,Cruzain noTriton,Lassa entry inh,SARS PLpro yeast,NS1 inh,RE007 growth inh,Cruzain inh Det,MARV entry inh
CC(C)c1nn2c(=O)cc(COC(=O)CNC(=O)c3ccccc3Cl)nc2s1,-2.5%,?,0.1%[46.1 µM],/,/,/,?,/
COc1ccc(-c2nnc(-c3cc4ccccc4oc3=O)o2)cc1,13.5%,15.8µM*,-8.8%,19.7%,21.6%,-5.5%,-0.7%,15.8%
O=C(CSc1nc(O)cc(=O)[nH]1)N1c2ccccc2CCc2ccccc21,1.6%,/,0.6%,-1.8%,24.4%,0.0%,/,4.6%[46.1 µM]
CCc1ccc(/C=C2\SC(=S)N(CCCC(=O)Nc3ccccc3C(=O)O)C2=O)cc1,0.0%,/,/,4.1%,3.6%,9.0%,/,/
O=C(Nc1ccccc1N1CCCC1)c1cc2ccccc2o1,-1.0%,-12.6%,13.4%,-16.5%,-46.3%,?,-2.0%,?
COC(=O)[C@@]1(Cc2ccc(OC)cc2)[C@H]2c3cc(C(=O)N4CCCC4)n(CCO)c3C[C@H]2CN1C(=O)c1ccccc1,-20.8%,?,-2.0%,10.2%,-28.6%,6.2%,-2.0%&0.2%,2.8%
COc1ccc(S(=O)(=O)N2CCCCC2)cc1C(=O)N1CCCCCC1,-8.3%,/,5.9%,/,/,0.0%,/,12.2%
Cc1cc(C)c(C(=O)CSc2nnc(N)s2)cc1C,6.0%,/,/,0.3%,-7.4%,8.4%,/,/

New compounds follow.
smiles,StopGo reporter,Cruzain noTriton,Lassa entry inh,SARS PLpro yeast,NS1 inh,RE007 growth inh,Cruzain inh Det,MARV entry inh
CCCCOC(=O)Nc1nc2ccc([N+](=O)[O-])cc2s1,7.7%,/,21.4%,-0.7%,/,-5.6%,/,?
CCOC(=O)CC1(C)OCC(C[N+]2(C)CCCCC2)O1 (stereo unspecified),-2.4%,/,/,0.1%,/,-13.6%,/,1.3%[46.1 µM]
O=C(NCC(=O)N(c1cccnc1)C(C(=O)NCc1ccco1)c1ccccc1)c1ccco1 (stereo unspecified),4.8%,-0.7%,?,1.5%,3.0%,15.1%,0.8%,0.0%&0.0%
Cc1ccc(Cl)cc1-n1c(SCC(=O)NCc2ccccc2)nc2n[nH]c(C)c2c1=N,?,?,?,/,/,/,1.8%,/
O=C(NCc1cccn1Cc1ccccc1)Nc1ccc(Br)cc1F,-11.0%,-2.3%,-23.2%[46.1 µM],/,/,/,-3.5%,/
O=C1c2oc3ccccc3c(=O)c2C(c2ccc(Br)cc2)N1c1ccccn1 (stereo unspecified),-11.8%,1.7%,-1.0%[46.1 µM],/,/,/,0.6%,/
CCOc1cc(CNC(C)C)c(Cl)cc1OCC(=O)NCCc1ccccc1,-4.8%,-5.2%,-16.2%,4.1%,1.4%,2.1%,0.0%,?
Cc1ccc(C(=O)Oc2ccc(Br)cc2C(=S)N2CCOCC2)cc1,15.2%,/,1.3%,-8.1%,-53.3%,20.3%,/,-3.4%
COc1ccc(-c2cc(=O)oc3c(C)c(OCC(=O)N[C@@H](Cc4ccc(O)cc4)C(=O)O)ccc23)cc1,-13.7%,/,/,0.8%,?,2.0%,/,/
CCNS(=O)(=O)c1ccc(NC(=O)Nc2cccc(C(F)(F)F)c2)cc1,-22.0%,-5.5%,-1.6%,/,-21.1%,3.1%,-12.9%,0.3%

Bioassay records from PubChem BioAssay.
